gsp ag: gsp mutant agonism | gsp mutant cells, cAMP HTRF, 30 min; control for the full effect not named in the record | Potency, µM (titrated, usually from 76.9 µM), without a hit: at the highest dose activation (cAMP increase), actives largely listed as activators | 340,000 compounds, 0.13% hits | AID 624287; active = well fitted activation curve with a large enough effect; inconclusive = small, poorly fitted or top-dose-only effect, or another doubt; inactive = no such curve, though single readings can be large or run the other way; cell line not stated here;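 further: phosphodiesterase inhibitor Ro 20-1724 added with compounds to block cAMP breakdown; potency means the concentration at half of the fitted maximal effect; nearly all actives have a fitted effect of over 60% in size; about a fifth of the inactives were tested at one dose only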
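Cells in DMEM/10% FBS with G418 were pretreated with compounds in DMSO plus […] (300 uM stock) for 30 min at 37C. cAMP was measured by HTRF (cAMP-d2 plus anti-cAMP antibody-K) after 30 min at room temperature.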
ClpP mod: qHTS Assay for Activators of ClpP. ATP-dependent Clp protease proteolytic subunit (Bacillus subtilis (strain 168)), P80244. purified B. subtilis ClpP, FRET peptide cleavage, 20 min. Potency, µM (titrated, usually from 57.5 µM), inactives show at the highest dose activity change, negative = active. 340,000 compounds, 1.9% hits; active = well fitted falling curve with a large enough effect; inconclusive = small, poorly fitted or top-dose-only effect; inactive = no such curve, though single readings can be large or run the other way; further: potency means the concentration at half of the fitted maximal effect; the source files actives as falling curves though it sought activators and does not explain the sign; nearly all actives have a fitted effect of over 65% in size; many hits overshoot -100%
Target sequence (P80244 whole entry, looked up): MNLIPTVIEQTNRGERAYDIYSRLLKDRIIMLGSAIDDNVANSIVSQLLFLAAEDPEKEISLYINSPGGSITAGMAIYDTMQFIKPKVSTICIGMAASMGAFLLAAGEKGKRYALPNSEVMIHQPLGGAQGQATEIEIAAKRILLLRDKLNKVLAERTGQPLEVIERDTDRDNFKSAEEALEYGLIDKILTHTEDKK
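ClpP 10 microg/mL final, pH 8 Tris/KCl buffer with BSA, glycerol, Tween-20; compound pinned in; FRET-FV substrate; RT 20 min; Ex320/Em430; ΔFRET vs ADEP 5.8 microM, DMSO, no enzyme.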
gsp antagonist: antagonists of gsp mutant (McCune-Albright syndrome). gsp-mutant cells, cAMP HTRF, 30 min; control for the full effect not named in the record. 340,000 compounds, 0.4% hits. AID 624288. Potency, µM (top dose mostly 76.9 µM), for the others: at the top dose activity change, negative = inhibition, hits mostly inhibitors; active = falling curve of any shape with a large fitted effect; inconclusive = falling curve, mostly with a smaller effect; inactive = flat or rising curve; cell line not stated here;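 further: intracellular cAMP measured with PDE inhibitor Ro 20-1724 present during compound exposure; potency means the concentration at half of the fitted maximal effect; on the % scale 0 is the no-effect control and ±100 the full control effect; nearly all actives have a fitted effect of over 65% in size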
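HTRF cAMP measurement after 30 min RT detection following 30 min, 37C compound treatment alongside […] (added as 300 uM solution) in G418-selected cells seeded at 2000/well and grown 16–24 h.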
Menin MLL FP FL: inhibitors of human menin-MLL interaction, wild-type MLL peptide | Fluorescence polarization, fluorescein-MLL peptide displacement from menin | FP activity change, % at 61.4 µM | 290,000 tested, under 10 active | AID 1766; inconclusive = falling polarisation curve, or a change in total fluorescence; inactive = total fluorescence flat and polarisation flat or rising; no compound was filed as active; the % refers to the polarisation; negative = inhibition;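 further: % of control where 0% means no effect; inhibitors lower the polarisation; unlabelled MLL peptide was the positive control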
TRPML1 agonist: agonists of human TRPML1 channel; Q9GZU1; TRPML1-expressing cells, Ca2+ dye fluorescence, FDSS; host cell line not named in the record; reference of the full effect not given here; activation, % (no concentration beside the values); 410,000 compounds, 0.12% hits; AID 624414; in the data active = activation above about 50%; inconclusive = about 30% to 50%; inactive = below about 30%; further: 0% is about no effect; the text of the record puts the active cut at 80%
Target sequence (Q9GZU1 whole entry, looked up): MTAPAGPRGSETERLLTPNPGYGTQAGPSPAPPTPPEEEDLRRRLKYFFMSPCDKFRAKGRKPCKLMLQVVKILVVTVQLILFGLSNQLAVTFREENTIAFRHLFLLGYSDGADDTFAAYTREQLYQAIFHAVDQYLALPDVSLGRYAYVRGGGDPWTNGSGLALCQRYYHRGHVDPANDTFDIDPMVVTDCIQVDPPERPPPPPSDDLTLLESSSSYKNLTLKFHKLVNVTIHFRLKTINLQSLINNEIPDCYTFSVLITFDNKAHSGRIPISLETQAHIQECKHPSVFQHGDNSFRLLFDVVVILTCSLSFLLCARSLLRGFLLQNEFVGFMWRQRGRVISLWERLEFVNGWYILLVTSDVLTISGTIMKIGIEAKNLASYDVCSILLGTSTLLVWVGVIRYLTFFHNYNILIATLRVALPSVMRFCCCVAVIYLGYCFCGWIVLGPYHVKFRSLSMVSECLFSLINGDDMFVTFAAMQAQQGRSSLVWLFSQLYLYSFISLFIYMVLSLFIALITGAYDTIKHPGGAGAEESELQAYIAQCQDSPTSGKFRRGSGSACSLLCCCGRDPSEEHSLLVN
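Tet-induced TRPML1-DL cells, 1,500 per well, cultured overnight, were loaded with a no-wash Ca2+ dye for 45–90 min. Calcium fluorescence was recorded on the FDSS for 110 s after compound addition, before the EC80 agonist (4 uM 54-4) was added.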
TRPML1 inh: blocks the human TRPML1 channel | Q9GZU1 | TRPML1-inducible cells, Ca2+ dye fluorescence, FDSS; hits give low values; inhibition of EC80 agonist-evoked calcium signal | activity change, negative = inhibition, % (test concentration not listed) | 390,000 compounds, 0.02% hits | AID 624415; in the data active means activity change below about -50%; inconclusive means about -30% to -50%; inactive means above about -30%;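 further: stimulus is agonist 54-4 at its EC80 concentration; on the % scale 0 is the no-effect control and ±100 the full control effect; compound concentration not given in the record; the text of the record puts the active cut at -80%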
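Calcium fluorescence in TRPML1-DL cells induced overnight with Tet: a 110 s read after compound pin addition, then a 110 s antagonist read after challenge with 54-4 at 4 uM final (EC80).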
* marks the source's active call; other numbers are inactive results; ? = inconclusive; / = no result given; & = joins results of further samples; [ ] = another dose, or the depositor's remark.

The first four records, ahead of the listing:
SMILES | gsp ag | ClpP mod | gsp antagonist | Menin MLL FP FL | TRPML1 agonist | TRPML1 inh
COc1ccc(C2/C(=C(/O)c3ccc(Cl)cc3)C(=O)C(=O)N2CCN2CCOCC2)c(OC)c1 (stereo not drawn) | -25% | 1.0% | -8% | 5.8 | -0.5 | 15
O=C(NCc1csc(-c2cccs2)n1)C1CC1 | 7%[15.4 µM] | / | -12% | 2.3 | 0.7 | 17
COc1ccc(NC(=O)[C@@]2(CC(=O)O)CC(/C=C/c3ccccc3)=NO2)cc1 | 13%[15.4 µM] | -1.4% | 1% | -2.2 | -0.6 | -2
Nc1ncnc2c1ncn2C1OC(COP(=O)(O)O)C(O)C1O (stereo not drawn) | / | 0.0% | -1% | 4.9&4.4 | 1.2 | -11

All compounds of this part, repeating the preview:
SMILES | gsp ag | ClpP mod | gsp antagonist | Menin MLL FP FL | TRPML1 agonist | TRPML1 inh
COc1ccc(C2/C(=C(/O)c3ccc(Cl)cc3)C(=O)C(=O)N2CCN2CCOCC2)c(OC)c1 (stereo not drawn) | -25% | 1.0% | -8% | 5.8 | -0.5 | 15
O=C(NCc1csc(-c2cccs2)n1)C1CC1 | 7%[15.4 µM] | / | -12% | 2.3 | 0.7 | 17
COc1ccc(NC(=O)[C@@]2(CC(=O)O)CC(/C=C/c3ccccc3)=NO2)cc1 | 13%[15.4 µM] | -1.4% | 1% | -2.2 | -0.6 | -2
Nc1ncnc2c1ncn2C1OC(COP(=O)(O)O)C(O)C1O (stereo not drawn) | / | 0.0% | -1% | 4.9&4.4 | 1.2 | -11
COc1ccc(-c2cc(-c3ccccc3O)[nH]n2)cc1OC | -10% | -10% | -10% | 2.9 | 0.5 | 3
COc1ccc(N2CCC(CNC(=S)Nc3cc(C)ccc3C)C2)cc1 (stereo not drawn) | 5% | -1.4% | -20% | 4.1 | 0.1 | -1
COc1cc(/C=C/C(=O)OCC(=O)NNC(=O)c2cc(Cl)ccc2OC)ccc1O | -109%[inhibitor] | -16% | -11% | / | -0.2 | 4
CC(=O)c1cc(C(=O)N2CCc3c([nH]c4ccccc34)C2CC(C)C)[nH]n1 (stereo not drawn) | 16% | / | -1% | -4.3 | 0.3 | -2
COc1ccc(C2CC(=O)N3CN(C4CCCCC4)CSC3=C2C#N)c(OC)c1 (stereo not drawn) | / | 1.4% | / | / | -0.8 | 24
O=C(O)CCc1ccc(S(=O)(=O)Nc2ccccc2C(=O)NCCc2ccccc2)cc1 | 26% | / | -10% | -2.2 | -0.1 | 7
Cc1nc2nc(NC(=O)C(C)C)[nH]n2c(=O)c1Cc1ccccc1 | / | -1.4% | / | / | -0.5 | 2
Cc1ccc(S(=O)(=O)NNC(=O)c2cc(C)c(C)cc2N)cc1 | 8% | -25% | -19% | / | 0.6 | -14
COc1ccc2nc(NS(=O)(=O)c3ccc(NC(C)=O)cc3)sc2c1 | -7% | -2.5% | -18% | 1.7 | 0.9 | 5
Cc1cc(O)cc(O)c1-c1onc(C(F)(F)F)c1-c1cscn1 | 3% | 0.9% | -7% | -1.2 | 1.8 | 15
CCOc1cccc(/C=N/NC(=S)Nc2ccccc2[N+](=O)[O-])c1O | -5% | 0.4% | -2% | 1.2 | -1.4 | -5
COc1ccc(NC(=O)COc2ccccc2Cl)cc1S(=O)(=O)N1CCCCC1 | -2% | -4.4% | -20% | / | 1.7 | 26
CCOC(=O)Cc1cnc(NC(=O)CSc2nc(N)cc(N)n2)s1 | 2%[15.4 µM] | / | -37% | 5.0 | -1.4 | -7
CCN(CC1CCCN(CCc2cccc(OC)c2)C1)C(=O)c1ccoc1C (stereo not drawn) | 3%[15.4 µM] | -1.3% | 0% | / | -0.6 | -6
COc1ccc(C(=O)Cn2c(NCCO)nc3ccccc32)cc1OC | 1% | -0.5% | 0% | 3.6 | -0.2 | 8
COc1ccc(NC(=O)CSc2nnc(Cc3ccccc3)c(=O)n2N)cc1 | -51%[inhibitor] | 0.5% | 15% | / | 0.9 | -1
CCCN(CCC)CCNC(=O)c1cc2c(-c3ccccc3F)nn(C)c2s1 | 3%[15.4 µM] | 4.0% | 5% | 3.6 | 0.0&-0.5 | 11&15
O=C1CCCN2N=C(SCC(=O)N3N=C(c4ccc(Br)cc4)CC3c3ccc(F)cc3)SC2=N1 (stereo not drawn) | ? | -3.4% | -8% | 6.9 | 0.0 | -8
O=C(NN1CCOCC1)c1cnn2c(C(F)F)cc(-c3ccccc3)nc12 | -13% | 0.8% | -14% | -0.7 | -0.5 | 13
CC(OC(=O)Cn1cnc2c1c(=O)n(C)c(=O)n2C)C(=O)NC(C)c1ccc(Cl)cc1Cl (stereo not drawn) | -16% | 1.3% | -26% | / | 0.4 | -10
CCn1c(CSCc2ccc(F)cc2)nnc1SCC(=O)N1CCN(c2ccccc2)CC1 | 9% | 0.7% | -11% | 0.8 | -0.8 | -2
COc1ccc(CN(C)CC(=O)Nc2cccc(S(=O)(=O)N3CCCC3)c2)cc1F | -33%[inhibitor] | -2.2% | -17% | / | 1.0 | 27
COC(=O)c1ccccc1NC(=O)c1noc2c1CCC2 | -35%[inhibitor] | -3.2% | 4% | 0.3 | -1.0 | 10
COc1ccc(C(=O)NCC(=O)n2nc(C)cc2C)cc1OC | 10µM* | 4.2% | 9% | 1.0 | 0.0 | -2
Cc1ccc2c(c1)c1c(c(=O)n(Cc3ccccc3)c(=O)n1CC(=O)Nc1ccccc1C)n2C | / | ? | / | / | 0.0 | -3
CC(C)c1onc(C(=O)NCc2ccccc2)c1[N+](=O)[O-] | -4% | -1.0% | 11% | 2.7 | -0.5 | 14

Three of the entries above in order of their number in gsp ag, lowest first.
SMILES,gsp ag
O=C(NN1CCOCC1)c1cnn2c(C(F)F)cc(-c3ccccc3)nc12,-13%
COc1ccc(-c2cc(-c3ccccc3O)[nH]n2)cc1OC,-10%
CC(C)c1onc(C(=O)NCc2ccccc2)c1[N+](=O)[O-],-4%

Further results.
SMILES | gsp ag | ClpP mod | gsp antagonist | Menin MLL FP FL | TRPML1 agonist | TRPML1 inh
Cc1ccc(Cc2c(C3CCCCC3)nc3ccc(Cl)cn23)cc1 | / | -17% | / | / | 0.5 | 24
CCc1ccccc1NC(=O)c1cc(S(=O)(=O)N(C)C)ccc1N1CCCC1 | -6% | 0.7% | -5% | / | 0.9 | 24
COC(=O)c1cc(C(=O)OC)cc(N2C(=O)CC(Sc3nc(C)cc(C)n3)C2=O)c1 (stereo not drawn) | 23% | 0.4% | 2% | -1.5 | -1.0 | 14
CCCCOC(=O)CCc1c(C)[nH]c(=O)c(C#N)c1C | -78%[inhibitor] | -29% | 14% | 3.5 | -0.7 | 0
CN(C)S(=O)(=O)c1cccc(NC(=O)Cc2ccsc2)c1 | -12%[15.4 µM] | / | 1% | 7.1 | 0.4 | 11
C=CCOc1ccc2ccccc2c1CNn1cn[nH]c1=S | -31%[inhibitor] | 1.9% | -2% | 0.7 | 0.2 | 45
Cc1ccc(N2C(=O)[C@@H]3Cc4ccccc4CN3C2=O)cc1 | -40%[inhibitor] | -2.4% | 10% | 3.7 | -0.4 | 10
CN(Cc1nccs1)C(=O)C1CCC(=O)N(CCc2cccc(F)c2)C1 (stereo not drawn) | -3% | ? | 4% | / | 0.4 | 28
Nc1nonc1C(=O)NCCNCc1ccc(Cl)c(Cl)c1 | / | 0.3% | / | / | -0.9 | 5
Cc1cccc(C(=O)NNC(=O)c2ccc3ccccc3c2)c1 | 8%[15.4 µM] | -9.9% | 8% | / | 0.0 | -2
Cc1ccc(S(=O)(=O)Cc2ccc(C(=O)N3CCN(c4cc(C)ccc4C)CC3)o2)cc1 | 17% | 0.8% | -3% | 0.0 | -0.8 | 5
Cc1ccc(N(C(=O)Cn2nnc3ccccc32)C(C(=O)NCc2ccccc2)c2ccccn2)cc1 (stereo not drawn) | 13% | -3.6% | -15% | 1.3 | 2.2 | 41
O=C(COC(=O)c1ccccc1Cl)NCc1cccs1 | -106%[inhibitor] | 1.8% | / | / | -0.9 | 44
CCc1nc(SCC(=O)c2ccc(C)c(C)c2)n[nH]1 | 0% | -1.9% | -9% | 0.7 | -0.5 | 7
CN(C)CC1CCC/C(=C\c2ccc(OC(=O)/C=C/c3ccc(Cl)c(Cl)c3)cc2)C1=O (stereo not drawn) | 0% | -3.8% | 8% | / | 0.0 | -13
CSc1ccccc1C(=O)N1CCN(c2ncccn2)CC1 | -23% | -14% | 8% | ? | -0.4 | -22
CCC(=O)c1ccc(OC(=O)Cc2ccc(OC)cc2)cc1 | -50%[inhibitor] | / | 9% | -0.9 | 0.1 | 9
c1coc(-c2nnc3sc(-c4cccs4)nn23)c1 | ? | 0.5% | 17% | 6.1 | 0.9 | 13
Cn1cccc1-c1cc(C(=O)N/N=C/c2ccc(F)cc2)[nH]n1 | -11%[15.4 µM] | / | -9% | -2.6 | 0.1 | 2
CCCCn1nnc(NC(=O)c2sc3cc(Cl)ccc3c2Cl)n1 | ? | -2.0% | 2% | -2.0 | 0.4 | -12

Some of these compounds in order of number of heavy atoms, lowest first:
SMILES | gsp ag | ClpP mod | gsp antagonist | Menin MLL FP FL | TRPML1 agonist | TRPML1 inh
O=C(COC(=O)c1ccccc1Cl)NCc1cccs1 | -106%[inhibitor] | 1.8% | / | / | -0.9 | 44
CCC(=O)c1ccc(OC(=O)Cc2ccc(OC)cc2)cc1 | -50%[inhibitor] | / | 9% | -0.9 | 0.1 | 9
COc1ccc(C(=O)NCC(=O)n2nc(C)cc2C)cc1OC | 10µM* | 4.2% | 9% | 1.0 | 0.0 | -2

Remaining list, next part
SMILES | gsp ag | ClpP mod | gsp antagonist | Menin MLL FP FL | TRPML1 agonist | TRPML1 inh
O=c1c(-c2cc3ccccc3o2)[n+]([O-])c2ccccc2n1OCc1ccccn1 | 22% | 3.3% | -7% | ? | -0.3 | -7
CCCCC(=O)Nc1ccc2c(c1)nc1n2CCOC1 | ? | 0.0% | 27% | -0.2 | -0.4 | -14
CC(C)c1ccc(Nc2c(-c3ccccc3O)nc3cnccn23)cc1 | / | -0.8% | / | / | 1.2 | 59
CCOP(=O)(OCC)C(NC(=O)c1cc([N+](=O)[O-])cc([N+](=O)[O-])c1)C(F)(F)F (stereo not drawn) | -9% | / | -5% | 0.9 | 2.1 | 27
O=C(COc1ccc(C(=O)c2ccccc2)cc1)NCC1CCCCC1 | 5% | -1.2% | -11% | 8.5 | 3.3 | 50
